# Rango-impB inh – inhibitors of Rango-importin beta complex formation | Q14974 | Rango CFP/YFP FRET sensor + importin beta, 45 min | Potency, µM (doses to about 92.2 µM), for inactives: top-dose inhibition of complex formation | 340,000 tested, 0.031% active; active = rising FRET ratio curve, often small or poorly fitted; inconclusive = mostly compound fluorescence or quenching in the first reads; inactive = flat curves in all reads;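 note: potency is the fitted concentration of half-maximal effect; 0% = DMSO wells and 100% = buffer wells lacking importin beta; nearly all actives have a fitted effect of over 15% in size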
#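 FRET biosensor Rango (snurportin 1 IBB between N-terminal EYFP and C-terminal Cerulean), 50 nM in PBS/1 mM DTT/0.02% Tween-20/0.1% BSA, preincubated 5 min RT with compound; 0.125 microM importin beta added, 45 min RT, CFP/YFP FRET ratio read.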
# miR-21 reporter – miR-21 reporter, rising signal. HeLa miR-21 FLuc reporter, luciferase, 48 h. Potency, µM (highest dose often 38.3 µM), inactives show top-dose reporter change, positive = more light. 340,000 tested, under 10 active; active = well fitted rising curve with a large enough effect; inconclusive = small, poorly fitted or top-dose-only effect; inactive = no such curve, though single readings can be large or run the other way;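 note: % of control where 0% means no effect; miR-21 action dims this reporter so a rising signal means less miR-21 action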
#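 HeLa cells stably expressing CMV-driven firefly luciferase with a downstream miR-21 binding sequence, endogenously expressing miR-21, were treated with titrations (up to about 40uM final) for 48 hours at 37 degree Celsius. Luciferase luminescence was read after lysis.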
# GLA inh pH 4.5 – alpha-galactosidase A (human) inhibition, pH 4.5 | 230,000 tested, under 10 active | AID 1467 | activity change, negative = inhibition, % at 105 µM | purified enzyme, 4-MU-alpha-Gal fluorescence, pH 4.5; inconclusive = small, poorly fitted or top-dose-only inhibition, or a rising curve; inactive = flat fitted curve, though single readings scatter; no compound was filed as active;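 note: 0% = full activity with enzyme and -100% = basal without enzyme; dose as in the result columns while the protocol names 77 µM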
# Target sequence (P06280 whole entry, looked up): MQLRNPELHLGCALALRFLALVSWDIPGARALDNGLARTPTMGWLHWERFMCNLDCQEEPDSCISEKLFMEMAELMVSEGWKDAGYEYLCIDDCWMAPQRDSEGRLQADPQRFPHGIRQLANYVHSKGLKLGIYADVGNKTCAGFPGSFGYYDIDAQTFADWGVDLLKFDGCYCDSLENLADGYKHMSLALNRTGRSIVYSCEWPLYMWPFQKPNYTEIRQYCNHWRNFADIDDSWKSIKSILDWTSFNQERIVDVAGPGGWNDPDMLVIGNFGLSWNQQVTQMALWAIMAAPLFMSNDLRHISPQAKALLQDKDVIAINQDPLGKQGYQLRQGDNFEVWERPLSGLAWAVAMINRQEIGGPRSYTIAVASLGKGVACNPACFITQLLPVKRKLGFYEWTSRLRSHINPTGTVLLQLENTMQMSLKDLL
# Rango dissoc inh – inhibition of RanGTP-driven Rango-importin beta dissociation; O95149+P62826; Biochemical FRET Rango-importin beta, RanGTP-induced dissociation; Potency, µM (titrated, usually from 46.1 µM), for the others: at the top dose activity change, negative = inhibition; 340,000 tested, 0.071% active; AID 540253; active means falling FRET ratio curve, often poorly fitted, with flat reads before Ran was added; inconclusive means other falling curves, or compound fluorescence or quenching; inactive means flat or rising ratio curve;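 note: potency is the fitted concentration of half-maximal effect; % of control where 0% means no effect; nearly all actives have a fitted effect of over 45% in size; -100% = wells without RanGTP and RCC1; the record marks most hits as doubtful in a second field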
#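 Recombinant Rango FRET biosensor (EYFP–snurportin 1 IBB–cerulean CFP10) at 0.1 uM premixed with 0.25 uM importin beta in PBS, 1 mM DTT, 0.02% Tween-20, 0.1% BSA. Compound added 5 min; RanGTP-RCC1 (0.6 uM Ran, 2 mM GTP, 0.2 uM RCC1) then triggers release, read at 45 min.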
# Starred values were filed as active, the others as inactive; ? = inconclusive; . = no result given; & = joins results of further samples.
SMILES | Rango-impB inh | Rango dissoc inh | miR-21 reporter | GLA inh pH 4.5
COc1ccc(NC(=O)Cn2c(-c3ccccc3)cn(-c3ccc(C)cc3)c2=O)cc1 | -0.9% | 13% | -6% | -1
CC(C)(C)c1ccc(NC(=O)NCc2ccco2)cc1 | 0.9% | 11% | -44% | -7
O=C(COc1ccc(CO)cc1Cl)Nc1ccc(F)cc1 | 1.2% | -1% | -2% | -4
Cc1oc2c(cc(NS(=O)(=O)c3cccs3)c3ccccc32)c1C(=O)OC(C)C | 0.0% | -8% | -28% | -3
CCc1nnc(NC(=O)CSc2nnc(-c3ccccc3O)n2-c2ccc(C)cc2C)s1 | -0.8% | 25% | 18% | -10
Cc1ccc(Oc2ncnc(N)c2[N+](=O)[O-])cc1C | 0.0% | 4% | -5% | ?
COc1ccc(NC(=O)CSc2nnc(C3CCCCC3)n2N)cc1 | -3.1% | -2% | -2% | 0
CC(C)(CC(=O)O)CC(=O)Nc1cc(C(F)(F)F)cc(C(F)(F)F)c1 | 6.5% | -1% | -9% | -4
CCNC(=O)CN(CCc1ccccc1)S(C)(=O)=O | -4.2% | 1% | -3% | -1
CCC(=O)Nc1cccc(NC(=O)CSc2nnnn2Cc2ccccc2)c1 | 0.1% | 0% | -3% | -2
CCOC(=O)C1C(=O)C=C(c2ccc([N+](=O)[O-])cc2)CC1c1ccccc1 (configuration not stated) | ? | -27% | 13% | 0
COc1ccc(CCN2C(=O)N(c3ccc(OC)cc3)C(=O)C2CC(=O)Nc2ccccc2)cc1 (configuration not stated) | -1.0% | 5% | 16% | -2
CCCCOC(=O)c1ccc(NC(=O)c2ccccc2OC)cc1 | 0.9% | 2% | 6% | -9
O=C(COc1ncnc2ccccc12)NCc1ccc2c(c1)OCO2 | 0.2% | 11% | -5% | 4
N#Cc1ccccc1S(=O)(=O)N1CCN(CC(=O)NCC2(N3CCOCC3)CCCCC2)CC1 | 0.3% | 13% | . | .
Cc1ccc(C)c(C(=O)COC(=O)CCN2C(=O)C3C4CCC(C4)C3C2=O)c1 (configuration not stated) | 3.2% | -8% | -1% | .
CC(=O)NCCc1ccc(S(=O)(=O)N2CCN(c3nc(-c4ccccc4)c(C)s3)CC2)cc1 | -3.9% | 0% | -4% | .
Cc1csc(NC(=O)CSc2nc3ccccc3s2)n1 | -1.8% | 3% | -3% | -1
COc1cc(NC(=O)c2ccnn2C)c(OC)cc1Cl | 4.1% | 50% | 0% | -2
CCN(c1ccccc1)S(=O)(=O)c1ccc(OC)c(NC(=O)C2=NN(c3ccccc3)C(=O)CC2)c1 | -1.6% | 2% | . | .
N#CCCNS(=O)(=O)c1ccc(C(=O)OCCCOC(=O)c2ccc(S(=O)(=O)NCCC#N)cc2)cc1 | 4.9% | -6% | 21% | .
Cc1ccc(NC(=S)NCc2ccccc2)c(C)c1 | -0.8% | 1% | -6% | .
O=C(NCc1ccccc1)/C(=C\c1ccccc1)NC(=O)c1ccco1 | 5.1% | 2% | 0% | .
COc1cccc(CNS(=O)(=O)c2ccc(S(=O)(=O)NC3CC3)cc2)c1 | 3.7% | -2% | 3% | .
Cc1ccc(Nc2nc(N)c([N+](=O)[O-])c(NCCO)n2)cc1C | -1.0% | 4% | -61% | -5
COc1ccc(N2CCN(C(=O)C3CCC(Cn4c(=S)[nH]c5ccccc5c4=O)CC3)CC2)cc1 (configuration not stated) | 0.4% | -5% | 15% | -9
O=C(C1CCCC1)N1CCC(CO)(Cc2ccccc2Cl)CC1 | 0.3% | 13% | -3% | -2
Cc1nc([N+](=O)[O-])cn1CC(O)c1ccccc1 (configuration not stated) | 0.0% | -13% | 0% | 4
COC(=O)[C@@]12CCCCN1[C@H](c1ccc(-c3ccc(OC)cc3)cc1)[C@@H]1C(=O)N(C)C(=O)[C@@H]12 | -0.1% | -17% | . | .
Cc1ccc(N2CCN(CC(O)COc3ccccc3)CC2)cc1 (configuration not stated) | 4.7% | 3% | -12% | .
CC(=O)NC(Cc1ccc(F)c(F)c1)C(=O)NC1CCN(S(=O)(=O)c2ccc(C)cc2)CC1 (configuration not stated) | -1.0% | -13% | -1% | .
CCOC(=O)C(=O)Nc1ccccc1C(=O)OC | -2.0% | -2% | -1% | 7
COc1ccc(CN(CC(=O)NC2CCCC2)C(=O)c2onc(C(N)=O)c2N)cc1 | 0.1% | -13% | -1% | -1
COCCNC(=S)N/N=C/c1c(C)[nH]c2ccccc12 | 3.7% | -5% | 17% | -4
CCc1ccc(S(=O)(=O)N/N=C\c2ccc([N+](=O)[O-])o2)cc1 | 3.0% | 29% | -1% | .
O=C(CCCCCn1c(=S)[nH]c2cc3c(cc2c1=O)OCO3)NCCc1ccccc1 | 0.7% | 0% | -2% | .
Cn1c(=O)n(CC(=O)O)c(=O)c2c1nc1n2CCCN1CCc1ccccc1 | -6.4% | -9% | 0% | .
CCCN(CC(=O)Nc1ccccc1OC)C(=O)Cn1c(=O)oc2ccccc21 | -0.8% | 7% | . | .
CC(=N)c1c(O)cc(C)oc1=O | 1.6% | 17% | . | .
O=C(CCNC(=O)c1ccccc1)OCC(=O)c1cccc(Cl)c1 | 0.6% | -2% | -4% | 14
CC(=O)c1sc(-c2ccccc2)nc1C | -0.2% | 19% | -20% | -3
CCCCc1cc(=O)oc2cc(OCC(=O)N(CC)CC)ccc12 | 3.6% | 3% | -17% | -1
COc1ccc(CNC(=O)c2sc3nc4c(c(C(F)(F)F)c3c2N)CCC4)cc1OC | 0.6% | ? | -10% | 5
O=[N+]([O-])c1ccc(-n2nnnc2-c2ccccc2)c([N+](=O)[O-])c1 | 4.3% | -8% | ? | 2
Cc1ccc(Cl)c(OCCCCN(C)Cc2ccccc2)c1 | -0.1% | 9% | 2% | 2
CCOc1cc(/C=C(/NC(C)=O)C(=O)O)cc(Cl)c1OCc1ccc(Br)cc1 | 1.7% | -1% | -4% | -11
C#CCNC(=O)C1=C[C@@H](C2CC2)[C@H](CCCO)[C@@H](OCC)O1 | -1.2% | 0% | -1% | 5
Cn1c2cc(C#N)sc2c2cnn(Cc3ccc(F)cc3)c(=O)c21 | 2.7% | 4% | . | .
CN1C2CCC1CC(OC(c1ccccc1)c1ccccc1)C2 (configuration not stated) | 3.7% | 16% | 6% | -3&0&-14
COC(=O)c1cc(OC)c(OC)cc1NC(=O)CSc1nnc(-c2cccnc2)n1C | ? | 6% | 0% | 9
O=C(CCCC(=O)NCC1CCCO1)NCC1CCCO1 (configuration not stated) | ? | ? | -2% | 0
O=C(c1cc(COc2ccc(F)c(F)c2)on1)N1CCOCC1 | 2.8% | -18% | -41% | .
CC1CN(C(=O)c2cc(COc3c(F)cccc3F)on2)CCN1C (configuration not stated) | -2.0% | 3% | . | .
CCN(c1ccc(F)cc1)S(=O)(=O)c1cccc2nsnc12 | -3.1% | -15% | -1% | .
O=C(NNC1=Nc2ccccc2SC1)c1ccc(Cl)cc1 | -0.8% | -6% | 7% | 3
Cc1c(C(=O)N(C)Cc2cccc(F)c2)oc2c(Cl)cccc12 | 0.5% | 11% | -13% | .
COC(=O)c1cc2sc(Cl)cc2n1Cc1nc(-c2cccc(C)c2)oc1C | . | . | 2% | 2
COc1ccc(NS(=O)(=O)c2cccc3nsnc23)cc1Cl | ? | 2% | -7% | .
COc1ccc(C2Nc3ccccc3C(=O)N2Cc2ccccc2)cc1CSc1ccccn1 (configuration not stated) | -0.5% | -8% | -6% | -8
CCOc1ccc(NC(=O)c2cccc(NC(=O)c3ccccc3)c2)cc1 | -0.6% | 20% | -30% | .

# More results
SMILES | Rango-impB inh | Rango dissoc inh | miR-21 reporter | GLA inh pH 4.5
CC(=O)c1c(C)[nH]c(C(=O)OCc2nnc(-c3ccc([N+](=O)[O-])cc3)o2)c1C | 2.0% | 0% | . | .
CCC(=O)N1CCCc2cc(S(=O)(=O)N3CCN(c4ncccn4)CC3)ccc21 | -1.8% | -5% | -4% | 1
COc1cccc(CN2CCCCC2C(=O)O)c1 (configuration not stated) | 2.0% | 34% | -2% | -5
Cc1ccc(NC(=O)CCn2nnc3ccccc32)c(C)c1 | ? | -7% | -6% | -6
O=C(CC1CCCC1)Nc1ccc(Cl)c(S(=O)(=O)N2CCOCC2)c1 | 3.8% | 10% | . | .
Cc1ccc(C)c2[nH]c(=O)c(CCNS(=O)(=O)c3ccccc3)cc12 | 4.4% | -15% | -16% | 3
CCOc1ccc(CCNC(=O)c2ccc(CS(=O)Cc3ccc(Cl)cc3)o2)cc1OCC (configuration not stated) | -0.5% | -8% | 10% | .
Nc1ncnc(Nc2ccc(S(N)(=O)=O)cc2)n1 | 2.7% | 5% | -18% | -5
CN1CCN(c2ccccc2NC(=O)c2ccc(-c3cccc(Cl)c3)o2)CC1 | -1.2% | 0% | 11% | .
N#C/C(=C\c1c(N2CCCCCC2)nc2ccccn2c1=O)C(=O)NC1CCS(=O)(=O)C1 (configuration not stated) | ? | -21% | -13% | -3
CCN1CCc2c(OCC(=O)Nc3ccc4c(c3)OCCO4)cccc2C1=O | . | . | -6% | 2
CCOC(=O)c1ccc(NC(=O)CSc2nnc(CNC(=O)c3ccco3)o2)cc1 | 0.3% | 5% | -4% | .
O=S(=O)(Nc1ccc(S(=O)(=O)Nc2ncccn2)cc1)c1ccccc1 | 4.0% | 6% | 0% | .
Cc1ccccc1C(=O)c1cccn1CC(=O)NCCCN1CC(C)CC(C)C1 (configuration not stated) | -0.7% | -3% | -5% | .
COc1ccccc1NC(=O)Nc1nc(CC(=O)Nc2ccc(OC)c(OC)c2)cs1 | 0.8% | -3% | . | .
O=C(Nc1nc(-c2ccccc2)c(C(=O)c2ccccc2)s1)c1ccc(S(=O)(=O)N2CCCC2)cc1 | ? | ? | -6% | -10
O=C(CSc1ccncc1)Nc1ccc2ccccc2c1 | 0.1% | -7% | -9% | 11
CN1C2CCC1CC(NC(=O)c1cccc(C(F)(F)F)c1)C2 (configuration not stated) | 0.5% | 15% | -6% | .
COc1ccc(CNC(=O)CSc2nc3[nH]ncc3c(=O)n2-c2ccccc2Br)cc1 | . | . | 1% | 10
Cn1c(-c2cccc([N+](=O)[O-])c2)cnc1NCc1cccc([N+](=O)[O-])c1 | -0.1% | 17% | 0% | 9
CC(C)CC(=O)NCCNC(=O)c1cc(OCC(F)(F)F)ccc1OCC(F)(F)F | -1.2% | 2% | -1% | 3
CC(=O)N1CCN(c2ccccc2NC(=O)c2ccc(C#N)cc2F)CC1 | -0.7% | 10% | -6% | 3
O=C(O)CCC(=O)N1CCN(S(=O)(=O)c2cccs2)CC1 | -6.0% | -1% | -1% | .
Cc1cccc(CC2CC(=O)N(c3ccc(C)cc3Br)C2=O)c1 (configuration not stated) | -2.7% | 1% | -2% | .
CCN(Cc1ccccc1)S(=O)(=O)c1c(C)[nH]c(C)c1C(=O)N1CCCC1 | 0.7% | 5% | 1% | .
O=C(Nc1nc2ccccc2[nH]1)c1cccc([N+](=O)[O-])c1 | 2.3% | 6% | -44% | 1
CC(C)OCCCNC(=O)CN1CCN(Cc2ccccc2Cl)C1=O | 0.5% | 1% | 0% | -29
O=c1c(-c2ccco2)[n+]([O-])c2ccccc2n1OCc1ccccn1 | ? | -12% | 0% | 0
Cc1ccc(C)c(NC(=S)NC(=O)c2cncc(Br)c2)c1 | 0.5% | ? | . | .
CCCCNCCOc1ccccc1-c1ccccc1 | -1.5% | 1% | 0% | 0
CC1=NN(S(=O)(=O)c2ccc(F)cc2)C(=O)c2ccccc2O1 | -0.6% | 23% | -3% | 5
C=CCn1c(-c2cccnc2Cl)nc2ccccc21 | 0.3% | 7% | -11% | 12
Cc1cccc(N2CCN(CC3CCCCC3)CC2)c1C | 0.0% | 12% | 10% | .
Cc1csc(NC(=O)CSC2=NS(=O)(=O)c3ccccc3N2)n1 | 4.7% | 6% | . | .
O=C(COc1ccccc1Cl)N1CCCCCCC1 | 0.0% | -4% | -4% | .
CC(C)Cn1c(SCC(=O)NCc2ccco2)nnc1-c1ccncc1 | 1.5% | -6% | 3% | 5

# Assay outcomes from PubChem.

# An excerpt; rates above refer to the full screens.
